LANA-H2A inh: blockers of LANA interaction with H2A/H2B – biochemical, FP readout, HTS, primary screen; cell-free LANA-H2A/H2B peptide, fluorescence polarization; inhibition, % (test concentration not listed); Protein LANA1 (Human herpesvirus 8 type P (isolate GK18)), Q9QR71; AID 2629, 2010; actives 0.6% (n = 320,000); in the data active = inhibition mostly above about 10%, no sharp cut-off; inactive = mostly below about 6.7%;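 also: stock transfer was 7.5 nL into about 10 µL; 0% = median of vehicle wells and 100% = median of positive control wells; one replicate is shown; the record names a cut of 25% in any replicate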
RanGTP-Imp inh: inhibitors of RanGTP-importin-beta interaction, primary screen, biochemical, FRET, CFP-Ran, YFP-importin-beta, homogeneous | Ran GTPase (GTP-bound) - importin-beta complex | cell-free CFP-Ran/YFP-importin-beta FRET ratio | inhibition, % (test concentration not listed) | actives 1.1% (n = 300,000) | AID 2216, 2009;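 active = most replicates above 15%; inconclusive = exactly half above 15%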;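 also: 0% = DMSO wells and 100% = Ran loaded with GDP instead of GTP; wells of about 40 µL received 100 nL stock; the first replicate is given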
A1 inh: caspase 3/7 activation in MEF A1-2A-BIM cells, primary screen, A1 inhibitor project, cell-based, luminescence, HTS; Caspase-Glo 3/7 luminescence, 3 h; percent of clofoctol response, vehicle zero; caspase activation, % (test concentration not listed); actives 0.066% (n = 330,000); AID 2462, 2010;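 active = over half of replicate activation scores above 10%, or exactly half above 10 with the replicate mean above 10; inconclusive = replicate mean below 10 yet half the replicates above 10; inactive = over half of replicates below 10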;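 also: wells of about 30 µL received 50 nL stock; many hits fall short of the cut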
Beta cell apopt: inhibitors of cytokine-induced beta cell apoptosis, primary screen, luminescence | INS-1E cytokine-induced death, ATP luminescence, 48 h; percent of positive-control rescue, neutral wells zero | AID 435005, 2010 | protection from apoptosis, % (test concentration not listed) | actives 0.8% (n = 300,000);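 active = all replicates at 75% or more, or half of them and the mean; inconclusive = half reach 75% but not the mean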;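 also: 0% = cytokine-treated negative control wells and 100% = positive control rescue; higher means more ATP so stronger rescue from cytokine killing; wells of about 40 µL received 100 nL stock; the first replicate is given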
MLL AF4-AF9 inh: inhibitors of AF4 peptide binding to AF9, primary screen, biochemical, AlphaScreen, biotin-AF4 peptide, FLAG-AF9, single point; actives 0.47% (n = 350,000); AID 651704, 2012; inhibition, % at 10 µM; Protein AF-9 (Homo sapiens), P42568;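 active = every replicate reaching a set inhibition limit, whatever the replicate mean, cut at about 25% in these data; inconclusive = mean inhibition reaches that limit but some replicates miss it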;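 also: 0% = plate neutral control median and 100% = total signal loss; the record names both 10 and 1 µM as test concentration; the first replicate is given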
Target sequence (P42568 whole entry, looked up): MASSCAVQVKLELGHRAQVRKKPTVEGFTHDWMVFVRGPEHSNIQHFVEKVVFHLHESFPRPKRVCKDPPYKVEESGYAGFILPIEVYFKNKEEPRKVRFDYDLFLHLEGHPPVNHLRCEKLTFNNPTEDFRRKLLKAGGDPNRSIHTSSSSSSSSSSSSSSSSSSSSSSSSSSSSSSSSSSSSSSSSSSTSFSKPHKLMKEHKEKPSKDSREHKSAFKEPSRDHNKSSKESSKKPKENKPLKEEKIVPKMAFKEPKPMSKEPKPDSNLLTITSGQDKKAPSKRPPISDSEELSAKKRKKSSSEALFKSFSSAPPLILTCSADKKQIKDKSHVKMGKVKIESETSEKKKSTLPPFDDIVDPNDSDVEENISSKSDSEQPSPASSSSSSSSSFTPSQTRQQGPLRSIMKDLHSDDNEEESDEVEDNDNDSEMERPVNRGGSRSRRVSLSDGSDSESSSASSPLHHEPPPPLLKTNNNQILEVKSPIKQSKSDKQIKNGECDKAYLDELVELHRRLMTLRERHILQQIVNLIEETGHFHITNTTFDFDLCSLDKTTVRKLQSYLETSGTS
Vif TR-FRET: inhibitors of Vif binding to APOBEC3G peptide, primary screen, biochemical, TR-FRET, GST-Vif 1-94, biotin-A3G peptide, dose response retest (AID 1117319); Virion infectivity factor (Human immunodeficiency virus type 1 group M subtype B (isolate …; inhibition, %, or IC50 in µM where a hit was titrated; actives 0.57% (n = 260,000); TR-FRET GST-Vif / biotin-A3G peptide binding; higher % means a stronger effect; test concentration not given here; strong numbers were not always called active;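 active = above the screen mean plus three standard deviations and confirmed in dose response; inconclusive = results disagree or hit not tested in dose response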;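 also: Vif residues 1-94 fused to GST binding biotinylated APOBEC3G peptide 110-148; 0% = full assay without inhibitor and 100% = GST in place of GST-Vif; retest series ran down from 100 µM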
T cruzi repl: inhibitors of intracellular T. cruzi growth, primary screen, luminescence, NIH3T3 host cells; T. cruzi beta-gal in NIH3T3, 90 h; inhibition, % (test concentration not listed); actives 1.4% (n = 300,000);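 active = mean inhibition across valid replicates above about 55%, limit read from the data; inconclusive = mean below that limit but half or more replicates reach it; inactive = mean below it, under half of replicates reach it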;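 also: signal also drops with host cell toxicity which is not excluded here; 0% = plate median of DMSO wells and 100% = zero luminescence signal; higher percent means less beta-gal luminescence so fewer parasites; stock transfer was 50 nL into about 50 µL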
Calb FLC: C. albicans growth inhibition with fluconazole, primary screen, CaCi-2 strain, Alamar Blue fluorescence | actives 0.57% (n = 300,000) | growth inhibition, % (concentration not given with the values) | C. albicans CaCi-2 (fluconazole-resistant clinical isolate) + fluconazole, 48 h;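 active = most replicates above 75%; inconclusive = exactly half above 75%; inactive = most below 75%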;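 also: all wells also contain fluconazole at 8 µg/ml as a sub-toxic cotreatment; 0% = median of DMSO wells and 100% = median of geldanamycin control wells; wells of about 8 µL received 7.5 nL stock; the first replicate is given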
Starred values were filed as active, the others as inactive; ? = inconclusive; . = no result given.

SMILES	LANA-H2A inh	RanGTP-Imp inh	A1 inh	Beta cell apopt	MLL AF4-AF9 inh	Vif TR-FRET	T cruzi repl	Calb FLC
O=C(c1ccc2c(c1)OCO2)N1CCc2ccccc2C1	-2.5	4.0	-1.3	-4	.	-5%	-9	-16
O=C(Cn1nc(Cc2cccnc2)c2ccccc2c1=O)NCCCN1CCCC1=O	-1.8	3.4	-0.4	-5	-4.0	2%	-4	-1
O=C(O)c1cc([N+](=O)[O-])ccc1C(=O)Nc1cccc([N+](=O)[O-])c1	-5.0	2.6	0.8	-10	1.1	.	-11	8
COCCCn1c(SCC(=O)N2CCCC(C)C2)nnc1-c1ccco1 (stereo not given)	0.3	?	-1.1	-1	-8.0	19%	-10	2
O=C(O)c1ccc(Cn2cc(Cl)cn2)cc1	1.6	2.2	0.8	4	.	8%	-9	36
O=C(CN1C(=O)NC2(CCCCCCC2)C1=O)Nc1ccc(Cl)cc1	11	.	-0.1	6	-5.9	1%	.	.
CC(C)Oc1cccc(C(=O)C2CCCN(C(=O)c3cc(C4CC4)[nH]n3)C2)c1 (stereo not given)	-2.6	-1.0	-0.7	7	0.6	.	-3	-5
O=C(c1cc([N+](=O)[O-])ccc1N1CCCCC1)N1CCCC1	0.4	2.2	1.8	-8	-4.0	2%	-13	-3
COc1ccc(S(=O)(=O)NCCOc2cccc3cccnc23)cc1OC	.	?	.	.	-22	.	-17	26
O=C1CSC(c2cccc([N+](=O)[O-])c2)N1C1CC2CCC1C2 (stereo not given)	5.8	1.7	-1.1	-3	3.4	-6%	4	-1
Cn1c(/C(C#N)=C(\O)c2ccc([N+](=O)[O-])s2)nc2ccccc21	1.9	-0.2	-0.2	2	3.7	-2%	7	-4
Cc1nc(Nc2ccc(Cl)cc2)c2nnn(Cc3ccccc3)c2n1	1.8	-2.5	0.8	8	2.5	.	17	25
Cc1nc(N2CCN(Cc3ccccc3)CC2)nc2c1CCC2	3.2	-0.9	-1.3	-1	3.0	1%	0	-40
O=C(COC(=O)/C=C/c1cccc(Br)c1)NCc1cccs1	6.0	.	-1.4	-3	-1.7	.	.	.
COc1ccc2[nH]c(C(=O)N3CCC(Cc4ccccc4)CC3)cc2c1	6.0	5.7	0.2	-2	.	-78%	2	-13
CCOc1ccc(-c2n[nH]c(C(=O)NN)c2C)cc1	-1.0	-0.2	-0.6	0	2.2	16%	-11	8
O=C(Nc1ccccc1C(=O)N1CCCCC1)c1ccco1	20*	3.0	0.2	-1	-3.9	.	-16	2
CCS(=O)(=O)n1nc(-c2ccc(C)cc2)nc1N	4.0	-3.3	1.8	-6	.	-6%	0	7
COC(=O)c1[nH]c2ccccc2c1NC(=O)C(C)N1CCOCC1 (stereo not given)	-6.5	-5.5	2.3	-1	5.7	6%	-19	-2
CC(=O)Nc1cccc(NC(=O)CSc2nnnn2Cc2ccccc2)c1	4.3	-2.9	-0.3	-1	.	-9%	2	-4
CCCCN(CC(=O)NC1CC1)S(=O)(=O)c1ccc(OCC)cc1	3.7	.	-0.8	-2	-4.0	-3%	.	.
CCOC(=O)c1nn(-c2ccc3c(c2)CCN3C(C)=O)cc1O	-3.4	1.4	-0.1	2	5.2	0%	2	2
Cn1cc(CN(CCO)Cc2cccs2)c(-c2ccccc2F)n1	6.4	0.7	0.3	-1	-2.0	-15%	-7	-4
CN(C)CCNC(=O)c1ccc(CS(=O)(=O)c2ccc(Br)cc2)o1	-3.4	-2.2	0.6	-1	-1.8	0%	-11	1
OCCNCCO	-1.3	-2.6	-0.2	.	0.4	.	-8	-2
CC1CC(C)CN(S(=O)(=O)c2ccc(Cl)cc2)C1 (stereo not given)	-5.3	-0.6	0.4	-6	2.8	-4%	10	13
COc1ccc(NC(=O)COc2ncnc3ccccc23)cc1S(=O)(=O)N1CCOCC1	5.0	?	-0.3	-5	-1.8	11%	-5	14
C=CCOc1ccc(CN(C)Cc2nc3cc(C(F)(F)F)ccc3c(=O)[nH]2)cc1	-1.4	?	0.1	3	-12	11%	10	-9
Cn1c(=O)c(=O)n(C)c2cc(S(=O)(=O)N3CCC(N4CCCCC4)CC3)ccc21	1.0	2.3	0.2	.	.	-4%	-10	-17
O=C(c1cc(C2CC2)on1)N1CCN(c2ccccc2)CC1	4.4	1.0	-0.2	3	-3.3	5%	-3	-5
CCOc1ccc(-n2nnc3c(=O)n(CC(=O)Nc4cc(C)on4)cnc32)cc1	-0.2	0.4	0.8	7	5.1	.	-4	-12
CCNc1nn2ccccc2c1/C=C(\C#N)C(=O)OCC	6.7	11	-0.5	.	-2.3	4%	5	-18
O=C(N/C(=C\c1ccccc1)C(=O)N1CCOCC1)c1ccccc1Cl	2.2	0.9	-0.3	-3	1.2	.	-28	-2
Cc1ccc(CNC(=O)C2CC(=O)N(C3CCCCCC3)C2)cc1 (stereo not given)	-1.5	-1.4	0.2	-15	1.2	.	-2	-4
O=C(c1ccc(NS(=O)(=O)c2cccc([N+](=O)[O-])c2)cc1)N1CCCCCC1	5.1	-8.3	-0.2	1	1.0	0%	8	.
Cc1ccc2oc(-c3ccc(C)c(NC(=O)Cc4cccs4)c3)nc2c1	0.3	2.6	-1.3	6	.	0%	10	-16
S=c1nc(-c2ccco2)[nH][nH]1	-1.1	1.9	0.8	1	.	7%	7	2
Cn1c(C(=O)NN)cc2cc(Oc3ccccc3)ccc21	8.7	-1.2	-0.8	0	-2.3	.	7	-91
CCc1cccc(NC(=O)CCNS(=O)(=O)c2cc(Br)cnc2N)c1	-1.9	-2.1	-0.4	-5	-19	23%	7	3
CCOc1ccc2nc(/N=C/c3c(C)[nH]n(-c4ccccc4)c3=O)sc2c1	-0.6	5.5	-1.5	1	.	.	-25	-44
Oc1ccc(/C=N/Nc2ccnc3cc(Cl)ccc23)c(O)c1	4.6	-26	-0.2	21	5.5	1%	-21	10
O=C(Cc1ccc([N+](=O)[O-])cc1)NC(C(=O)O)C(O)c1cccc([N+](=O)[O-])c1 (stereo not given)	-3.2	-2.1	0.8	-4	-7.2	4%	-14	-7
Cc1cc(OCCCCN2C(=O)NC(C)(C)C2=O)cc(C)c1Cl	-0.3	2.6	?	-6	.	5%	2	13
Cc1nn(-c2cc(N3CCCCC3)ccc2N)c(=O)c2ccccc12	-1.5	0.8	0.1	3	.	?	?	-3
O=C(O)CN1c2cccc3cccc(c23)S1(=O)=O	1.7	5.4	0.6	-5	-0.5	.	-2	1
CC(=O)c1ccc(NC(=O)C(C)Nc2ccc(Cl)cc2)cc1 (stereo not given)	-0.6	-0.7	-1.1	-11	1.1	-2%	15	-6
COc1cccc(COC(=O)Cc2ccc(S(=O)(=O)N3CCOCC3)s2)c1OC	-2.6	.	0.8	-10	1.3	-5%	.	.
COc1ccccc1N(CC(=O)NC(C)(C)C)S(=O)(=O)c1cccs1	.	-0.4	0.5	-5	8.1	.	-10	-12
CSc1nc(C)c(CCOC(=O)c2ccccc2)c(=O)[nH]1	4.2	1.2	0.9	-2	.	-3%	-1	2
O=C(O)/C=C/C(=O)Nc1ccc(N2CCOCC2)nc1N1CCOCC1	0.5	-6.7	0.4	-2	-2.8	26%	-9	1
CC1(C)C[C@H](O)[C@]2(CO)CC[C@]3(C)C(=CCC4[C@@]5(C)CC[C@H](O)C(C)(C)C5CC[C@]43C)[C@@H]2C1 (stereo not given in full)	-1.8	.	0.6	17	-3.9	.	.	.
O=C(CCC1CCCC1)Nc1nnc(-c2ccc3c(c2)OCO3)s1	3.5	?	-1.3	0	.	.	-5	4
Cc1nn(-c2ccc(C(=O)O)cc2)c(C)c1Cl	-4.1	2.3	-4.0	3	-3.0	-6%	3	5
Cc1[nH]c(C)c(S(=O)(=O)NCc2ccc(F)cc2)c1C(=O)N1CCCCC1	-4.0	-0.8	-0.1	1	-8.3	.	-2	35
CC(C)CC(CO)N1CCN(C(=O)c2cccc(Cl)c2)CCC1=O (stereo not given)	-2.4	-5.8	-0.2	-5	-0.3	.	-15	-8
COC(=O)[C@@]1(Cc2ccc(OC)cc2)[C@H]2c3cc(C(=O)N4CCCC4)n(C[C@H](O)CO)c3C[C@H]2CN1C(=O)c1ccccc1	1.4	0.4	1.1	6	.	.	2	-4
N#Cc1c(N)nc2c(c1N)CC(CO)O2 (stereo not given)	-1.0	1.5	0.1	-2	.	8%	-26	-3
CCc1nnc(NC(=O)CCC(=O)N2CCN(Cc3ccccc3)CC2)s1	-5.3	-1.9	0.7	.	.	-2%	7	-4
COC(=O)c1ccc(CO/N=C/c2ccccc2OC)cc1	5.6	3.2	0.6	.	5.6	10%	2	-25
Cc1nc(-c2ccc(NC(=O)CC(C)C)cc2)cs1	-5.2	-2.1	-2.6	0	.	.	-5	26

Going on with the list.
SMILES	LANA-H2A inh	RanGTP-Imp inh	A1 inh	Beta cell apopt	MLL AF4-AF9 inh	Vif TR-FRET	T cruzi repl	Calb FLC
OCC[C@@H]1C[C@@H](O)[C@H](O)[C@]2(OCCc3ccccc32)O1	7.0	?	0.0	-9	-2.1	.	-4	-1
C=CCOC(=O)/C(=C\c1ccccc1)NC(=O)c1ccco1	4.3	0.8	-0.1	-9	4.5	-5%	-10	-5
O=C(CN(CC1CCCO1)C(=O)CNS(=O)(=O)c1ccc(Cl)cc1)NC1CCCC1 (stereo not given)	8.2	-0.7	0.8	1	1.2	.	12	-1
Cc1cc(C)n(CC(C)NCc2cn[nH]c2-c2ccc(C)c(C)c2)n1 (stereo not given)	0.0	4.0	-0.5	-3	-1.9	-11%	-1	14
O=C1C=C(N2CCOCC2)c2ccccc2C1=O	-0.9	3.5	1.1	104*	3.3	.	-33	25
CS(=O)(=O)N(CC(=O)NCc1ccco1)Cc1ccc(Cl)cc1	1.4	7.2	-0.3	-2	.	5%	-12	5
Cc1cc(=O)[nH]c(SCC(=O)c2ccccc2)c1C#N	0.7	6.4	-8.5	-4	.	?	-14	27
CC(CNC(=O)CN1C(=O)CCSc2ccccc21)c1ccccc1 (stereo not given)	-8.9	?	-0.9	-12	-0.6	-3%	-10	3
O=C(CCn1[nH]c(=O)c2ccccc2c1=O)OC1CCCCC1	9.6	-2.3	0.4	-3	-5.9	8%	6	-8
CCNc1nc(N)nc(Oc2ccc(C(=O)OC)cc2)n1	-1.5	4.2	-0.9	-3	.	-8%	-16	-6
c1cnc(N2CCN(c3nc4ccccc4n4cnnc34)CC2)nc1	1.0	-3.4	0.5	-11	.	-7%	-14	25
COc1cccc(NC(=O)N(Cc2ccco2)C(C)c2cccs2)c1 (stereo not given)	0.2	6.3	1.0	7	.	8%	-13	-11

Screening data deposited in PubChem by several laboratories.
